UCH37 inh = inhibitors of human deubiquitinating enzyme UCH37; Q9Y5K5; purified proteasome/UCH37, Ub-AMC cleavage fluorescence; inhibition, % (concentration not given with the values); actives 0.33% (n = 330,000); AID 588478;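 active = mean of two replicates above 20%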;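 also: 0% = compound-free wells with enzyme and 100% = wells lacking proteasome; stock transfer was 100 nL into about 20 µL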
Target sequence (Q9Y5K5 whole entry, looked up): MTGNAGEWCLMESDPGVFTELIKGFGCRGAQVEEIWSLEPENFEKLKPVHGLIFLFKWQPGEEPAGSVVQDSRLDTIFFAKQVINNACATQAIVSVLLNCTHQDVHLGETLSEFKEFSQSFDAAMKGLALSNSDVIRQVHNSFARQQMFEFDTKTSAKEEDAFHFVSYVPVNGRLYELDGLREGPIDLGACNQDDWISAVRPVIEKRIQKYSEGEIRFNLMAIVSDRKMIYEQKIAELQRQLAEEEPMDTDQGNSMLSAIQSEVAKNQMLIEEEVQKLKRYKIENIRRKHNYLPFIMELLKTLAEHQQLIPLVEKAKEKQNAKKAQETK
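Material: human UCH37 enzyme supplied as purified proteasome complex. Measure: % inhibition of Ub-AMC cleavage fluorescence. Medium: pH 7.4 Tris-HCl (50 mM) with ovalbumin, ATP-MgCl2, DTT. Times: 30 min preincubation with enzyme, 25 min cleavage at room temperature. Detection: AMC fluorescence intensity at 355/460 nm.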
Ecoli growth = E. coli growth inhibition. Escherichia coli growth, OD600, 23 h; stronger effect = lower value. OD600 absorbance (test concentration not listed). actives 0.21% (n = 330,000). AID 1053175;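 active = OD600 absorbance below the run mean of sample wells minus 3.6 SD, in any replicate, cut at about 0.56 in these data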;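 also: stock transfer was 300 nL into about 60 µL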
T cruzi inh = blocks replication of Trypanosoma cruzi | T. cruzi beta-gal in NIH3T3, luminescence, 90 h | inhibition, % (no concentration beside the values) | actives 1.4% (n = 300,000) | AID 1885;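 active = mean inhibition across valid replicates above about 55%, limit read from the data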;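 also: signal also drops with host cell toxicity which is not excluded here; 0% = plate median of DMSO wells and 100% = zero luminescence signal; higher percent means less beta-gal luminescence so fewer parasites; stock transfer was 50 nL into about 50 µL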
* = called active by the depositor; & = joins results of further samples. Only part of the results is shown; the hit share may differ from the screen's.

smiles	Ecoli growth	T cruzi inh	UCH37 inh
COc1ccc(C2c3cc(OC)c(OC)cc3CCN2C2CC(=O)N(c3ccccc3)C2=O)cc1OC (centres undefined)	0.666	-3.1	2.0
CC(C)(C)NC(=O)c1ccc(C(=O)NC(C)(C)C)cc1	0.643	-1.3	4.4
O=C(Nc1ccc2c(c1)OCO2)c1cc2ncc(Br)cn2n1	0.752	6.0	1.3
CCOC(=O)c1sc(NC(=O)CSc2ncccn2)c(C#N)c1C	0.668	1.9	2.7
Cc1cc(C)c2[nH]c(=O)c(CN(C(=O)C3CCCO3)C3CCCC3)cc2c1 (centres undefined)	0.753	0.7	-4.6
CCOc1ncccc1C(=O)OCc1cc(=O)oc2c(C)c(C)ccc12	0.745	-21.9	1.0
CN(Cc1ccc(-n2cccn2)cc1)C(=O)c1cnn2c1NC(c1ccco1)CC2C(F)(F)F (centres undefined)	0.763	14.8	-1.1
Cc1cc(C)n(CC(=O)c2ccc(Br)cc2)c(=O)c1C#N	0.729	-1.3	8.2
CN=C1c2cc3cc(OC)ccc3n2CCN1Cc1ccccc1	0.646	11.9	-3.3
CC(NC(=O)Cn1nnc(-c2ccncc2)n1)c1ccccc1 (centres undefined)	0.717	-4.0	0.7
CCOC(=O)C1=C(O)/C(=C/c2cn(CC(=O)N3CCCC3)c3ccccc23)SC1=Nc1ccccc1	0.738	3.8	-12.0
O=C(Nc1cccc(Cl)c1)C1CCCN(S(=O)(=O)c2ccc(F)cc2)C1 (centres undefined)	0.693	7.6	-1.0
COc1ccc(-n2nc(C(=O)NCC(=O)Nc3ccccn3)c3ccccc3c2=O)cc1Cl	0.722	-3.7	-93.2
CN(C)CCCN1C(=O)C(=O)/C(=C(/O)c2ccncc2)C1c1cccnc1 (centres undefined)	0.72	10.3	7.2
c1ccc(-c2oc3ncnc(N4CCOCC4)c3c2-c2ccccc2)cc1	0.683	3.6	-40.7
O=C(CN(Cc1cccs1)C(=O)CNS(=O)(=O)c1ccccc1)NCc1ccco1	0.672	-0.2	0.4
CCCCC1=CC2=C(c3ccco3)C(=O)C(C)(OC(=O)c3ccc(OC)cc3)C(=O)C2=CN1Cc1ccc(OC)cc1 (centres undefined)	0.699	16.5	2.6
COc1ccc(-c2cnc(SCC(=O)Nc3ccc4c(c3)OCO4)n2Cc2ccco2)cc1	0.72	-8.7	2.1
CCn1c(=O)c2cc(C(=O)N3CCCC3)sc2c2ccccc21	0.707	0.2	-29.2
O=C1CC(N2CCN(c3ccc(F)cc3)CC2)C(=O)N1Cc1ccc(N2CCCC2=O)cc1 (centres undefined)	0.684	4.4	-0.1
CCOC(=O)Cn1cnc([N+](=O)[O-])n1	0.678	7.7	5.7
CCOC(=O)Cc1csc(NC(=O)c2ccc(OC)c(OC)c2)n1	0.73	-16.5	1.2
CCc1c(C(C)O)oc2ccc3c(C)cc(=O)oc3c12 (centres undefined)	0.654	5.5	-17.2
CCc1ccc2[nH]c(=O)c(CN(Cc3ccc(OC)cc3)Cc3nnnn3CCOC)cc2c1	0.745	15.0	-1.0
O=c1cc(-c2ccco2)oc2ccc(Cl)cc12	0.77	13.6	-27.6
Cc1ccc(NC(=O)CCN2CCN(C/C=C/c3ccccc3)CC2)cc1C	0.588	43.0	0.9
Cc1nn(-c2ccccc2)c2sc(C(=O)N3CCc4ccccc4C3)cc12	0.707	1.7	2.1
Cc1ccc(-n2ncc3c(=O)n(CC(=O)N4CCCc5ccccc54)cnc32)cc1C	0.746	13.7	-6.1
CC(Sc1ccc2ccccc2n1)C(=O)O (centres undefined)	0.673&0.658	4.7&3.1	3.0&2.4
C/C(Cl)=C/Cn1c(SCc2ccc(Cl)cc2)nc2c1c(=O)[nH]c(=O)n2C	0.749	3.5	0.9
CCc1nn2c(=O)cc(CSCC(=O)Nc3ccccc3F)nc2s1	0.668	-14.7	1.3
CCN(CC)CCNC(=O)c1c(O)c2cccc3c2n(c1=O)CCC3	0.71	8.8	2.3
CC(c1ccccc1)N1C(=O)c2ccc(C(=O)NCc3ccco3)cc2C1=O (centres undefined)	0.68	-1.5	1.9
CCN1CCN(c2nc(SC)nc3sc4c(c23)CC(C)(C)OC4)CC1	0.767	7.2	-7.6
Cc1ccc(C2CC(=O)c3cnc(NC(=O)c4ccco4)nc3C2)cc1 (centres undefined)	0.697	4.0	-1.3
COc1ccc(Cn2nnnc2C(c2cc3cc(C)cc(C)c3[nH]c2=O)N2CCOCC2)cc1 (centres undefined)	0.695	4.7	-22.7
CN(C=O)CP(=O)(O)CN1CCCCC1	0.746	-2.6	-1.1
CC1(c2ccc([N+](=O)[O-])cc2)CC(C)(C)N(C(=O)c2ccccc2)c2ccccc21 (centres undefined)	0.685	31.0	-0.2
O=C(CN1C(=O)CCS(=O)(=O)c2ccccc21)Nc1ccc2c(c1)OCCO2	0.751	0.3	-0.3
COc1ccc2cc(-c3cc(C(=O)OCC(=O)Nc4c(C)n(C)n(-c5ccccc5)c4=O)c4ccccc4n3)ccc2c1	0.715	-1.4	-142.0

3 compounds already listed, arranged by the number in UCH37 inh, falling.
SMILES	UCH37 inh
C/C(Cl)=C/Cn1c(SCc2ccc(Cl)cc2)nc2c1c(=O)[nH]c(=O)n2C	0.9
O=C(Nc1cccc(Cl)c1)C1CCCN(S(=O)(=O)c2ccc(F)cc2)C1 (centres undefined)	-1.0
CCN1CCN(c2nc(SC)nc3sc4c(c23)CC(C)(C)OC4)CC1	-7.6

(further entries)
smiles	Ecoli growth	T cruzi inh	UCH37 inh
COc1ccc(Nc2nc(OC)nc(N3CCN(c4ccc(OC)cc4)CC3)n2)cc1	0.714	49.9	3.8
COc1ccc2c(c1)CCCC21NC(=O)N(CC(N)=O)C1=O (centres undefined)	0.728	-11.0	-0.1
COc1ccccc1CN1CCCC(C(=O)N(C)Cc2ccccc2)C1 (centres undefined)	0.737	27.4	4.6
COc1cccc(CNC(=O)C2CCN(S(=O)(=O)c3ccc(F)cc3)CC2)c1	0.772	-0.4	-1.6
CCCN1CCc2c(sc3nc(SCC)n(-c4ccc(OC)cc4)c(=O)c23)C1	0.682	43.4	0.0
COc1ccc(Cn2nnnc2C(c2ccccc2Cl)N2CCN(C3CCCC3)CC2)cc1 (centres undefined)	0.759	24.9	1.8
COCCNC(=O)c1cc(-c2ccc(OC)c(OC)c2)on1	0.698	-14.0	1.0
O=c1oc2ccccc2c(NC2CCCCC2)c1NS(=O)(=O)c1ccc(Br)cc1	0.636	4.1	-3.6
COc1ccc(NC(=O)Cn2cccc2)c(OC)c1	0.706	-2.6	4.4
CCCOC(=O)Cn1c(=O)c2cc3c(=O)n(CC(=O)OCCC)c(=O)c3cc2c1=O	0.748	-13.5	-7.2
Cc1nc(-c2ccccc2)sc1C1(C)CC(c2cccnc2)=NO1 (centres undefined)	0.69	23.5	-5.0
CNc1nc2c(c(=O)[nH]c(=O)n2C)n1CCOC	0.72	-22.2	1.1
COc1ccc(Cl)cc1NC(=O)C1CCCN(S(=O)(=O)c2cccc3nonc23)C1 (centres undefined)	0.724	0.6	0.8
CCCCN1CN(S(=O)(=O)c2cccs2)c2nc3ccccc3nc21	0.75	17.4	-3.0
O=C(c1coc(=O)c(Br)c1)N1CCOCC1	0.755	4.9	-66.7
OCCNc1nc2ccccc2n1-c1ncnc2sc3c(c12)CCC3	0.684	16.6	-0.6
CCN(CC)S(=O)(=O)c1ccc(Oc2ccccc2)cc1	0.624	6.4	1.2
COc1ccc(C(=O)C(CN2CCOCC2)c2ccccc2)cc1F (centres undefined)	0.701	14.8	-1.1
C/C=C/c1c(F)c(F)c(Oc2ccc(C(=O)O)cc2)c(F)c1F	0.668	-8.7	2.7
COc1ccc(NC(=O)C(C)N2c3cccc4cccc(c34)S2(=O)=O)cc1 (centres undefined)	0.723	8.5	-22.7
CCOc1cc(-n2nc(C)c(C#N)c2N)nc(SC)n1	0.676	-8.6	-1.6
Cn1nc(CC(=O)Nc2ccc3c(c2)CCC3)c2ccccc2c1=O	0.689	19.8	-0.3
COc1ccc2[nH]c(=O)c(CN(CC3CCCO3)C(=O)Nc3ccc(F)cc3)cc2c1 (centres undefined)	0.667	13.1	0.5
NS(=O)(=O)c1ccc(NC(=O)N[C@@H](Cc2ccccc2)C(=O)O)cc1	0.74	-15.4	2.3
CCCCc1nc2ccccc2c(=O)n1NC(=O)c1c(O)c2c(n(CC(C)C)c1=O)CCCC2	0.688	38.2	-4.8
CCOC(=O)C1=C(C)Nc2nc(=S)[nH]n2C1c1ccc(Cl)cc1 (centres undefined)	0.733	12.1	3.1
CCOCCOC(=O)COc1ccc(N2C(=O)c3ccccc3C2=O)cc1	0.65	-14.2	3.1
CCc1nn2c(=O)cc(CSCC(=O)Nc3ccccc3Cl)nc2s1	0.678	-7.4	3.9
COCCNC(=O)c1c[nH]c2ccc(S(=O)(=O)N3CCC4(CC3)OCCO4)cc2c1=O	0.777	-4.2	-7.7
CCOc1ccc(-n2c(C)nc3c(cnn3-c3ccc(Cl)cc3)c2=O)cc1	0.768	-6.6	4.4
Cc1ccc(N(C(=O)Cn2nnc3ccccc32)C(C(=O)NCc2ccco2)c2ccc(C)o2)cc1 (centres undefined)	0.725	18.6	-1.7
COc1ccccc1CCNC(=O)c1cnccn1	0.726	-11.8	-1.1
Cc1cc2cc(CCNC(=O)c3c(-c4ccccc4Cl)noc3C)c(=O)[nH]c2cc1C	0.745	4.2	-18.9
Cc1ccc(-n2c(SCC(=O)NCc3ccc4c(c3)OCO4)nnc2-c2cccnc2)c(C)c1	0.734	15.7	5.0
O=C(c1ccco1)N1CCN(c2ncnc3c2[nH]c2ccc(Br)cc23)CC1	0.731	6.6	1.8
COc1cc(NS(=O)(=O)c2ccc(F)cc2)c(OC)cc1NC(=O)C1CC1	0.643	12.3	1.7
CCN1CCN(CC(=O)Nc2c(C(=O)OC)[nH]c3cccc(Cl)c23)CC1	0.717	16.9	0.5
O=c1c2ccccc2nc2c3ccccc3c3nncn3n12	0.769	-0.1	-2.2
COCCn1c(SCC(=O)Nc2nnc(C)s2)nnc1-c1ccncc1	0.694	0.0	2.5
Cc1c(C(=O)Nc2cccc(Cl)c2)c2ccccn2c1CCc1ccncc1	0.737	55.8*	-80.6
Cc1ccc(Nc2nc(-c3c(C)nc4ccccn34)cs2)cc1	0.639	39.0	-14.7
CCC1(C)Cc2ccccc2-c2nc3n(c(=O)c21)CCCCC3 (centres undefined)	0.714	15.6	2.2
CC(=O)Nc1ccc(S(=O)(=O)N2CCC(c3nc4ccccc4[nH]3)CC2)cc1	0.689	-18.5	1.8
c1ccc(OCCCCN2CCOCC2)cc1	0.719	12.7	-0.1
CCC1CCCCN1C(=O)COC(=O)c1ccc(S(=O)(=O)N2CCOCC2)cc1 (centres undefined)	0.778	-1.2	-3.2
Cc1cc(C(=O)COc2nncc3ccccc23)c(C)n1C	0.671	0.3	0.6
COc1ccc(C2C(C(=O)c3sc(C)nc3C)=C(O)C(=O)N2CCN2CCOCC2)cc1 (centres undefined)	0.792	-1.5	12.8
O=c1[nH]c2ccccc2n1CCCN1CCN(C(c2ccccc2)c2ccccc2)CC1	0.627	6.0	0.9
Cc1cc(C)nc(SCC(=O)Nc2ccc(S(=O)(=O)NCCO)cc2)n1	0.704	-0.4	0.1
N#Cc1c(N)n(CCOC(=O)c2ccc(Cl)cc2)c2nc3ccccc3nc12	0.757	16.9	-72.1
Cc1ccc(-c2nnc(SCC(=O)Nc3ccc(S(=O)(=O)N4CCCCCC4)cc3)o2)cc1	0.685	14.2	4.6
COc1ccc(C2CC(c3ccc(Cl)cc3)Nc3nc(NC(=O)c4ccco4)nn32)cc1 (centres undefined)	0.775	31.1	-1.1
COc1ccc(N(C(=O)C(C)C)S(=O)(=O)c2cccs2)cc1	0.654	-11.0	3.8
Cc1nc(OCc2ccccc2)c2sc3nc4c(cc3c2n1)COC(C)(C)C4	0.686	21.9	-1.0
Cc1cc(C(F)(F)F)nn1-c1nc(-c2ccco2)cc(C(F)(F)F)n1	0.722	9.1	-9.7
CCOc1ccccc1NC(=O)Cn1nnc(C(=O)Nc2ccccc2Cl)c1N	0.727	13.4	4.2

Given field by field: part of the list above.
Compound: COc1ccc(N(C(=O)C(C)C)S(=O)(=O)c2cccs2)cc1
- Ecoli growth = 0.654
- T cruzi inh = -11.0
- UCH37 inh = 3.8

Compound: Cc1nc(OCc2ccccc2)c2sc3nc4c(cc3c2n1)COC(C)(C)C4
- Ecoli growth = 0.686
- T cruzi inh = 21.9
- UCH37 inh = -1.0

Part of the list above, reduced to T cruzi inh.
Molecule	T cruzi inh
CCN(CC)CCNC(=O)c1c(O)c2cccc3c2n(c1=O)CCC3	8.8
CC(c1ccccc1)N1C(=O)c2ccc(C(=O)NCc3ccco3)cc2C1=O (centres undefined)	-1.5

Screening data deposited in PubChem BioAssay by several laboratories.
